Insulin prom inh – TRM-6 insulin promoter activity inhibition | 130,000 tested, 0.9% active | inhibition, % at 2 µM | AID 1273 | TRM-6 cells (human fetal islet line), insulin promoter-eGFP reporter, imaging; reporter expression induced with tamoxifen;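 active = inhibition above the mean plus 3 SD, with well images judged a real hit on visual review, cut at about 60% in these data, passing the limit was not always enough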
HSV replic up – HSV replication enhancement | HSV replication augmentation in cells, fold increase | maximum fold increase | 220,000 tested, 0.005% active | AID 1956;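 active = peak rise of 1.5-fold or more in the series; tested in PC3 cells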;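 also: first round at 10 µM; read as green reporter fluorescence; hits show the peak of a series up to 25 µM; 1 = signal of infected wells without compound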
PKD1 inh – PKD1 (human) kinase inhibition | Q15139 | PKD1 kinase fluorescence polarization assay | inhibition, %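 (about 10 µM by stock and volumes)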 | 200,000 tested, 0.056% active;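 active = inhibition of 50% or more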;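 also: controls were vehicle for no effect and a reference inhibitor for full effect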
GALR2 ag – GALR2 (human) receptor agonism | activation, %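 (tested at 5 µM)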 | GALR2-expressing cells, agonist activation read-out | 140,000 tested, 0.48% active | O43603;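 active = above mean plus 3 SD of all compounds, about 5% in these data, not always enough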;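 also: 0% = vehicle buffer wells and 100% = reference agonist at full effect; tested in CHO reporter cells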
Target sequence (O43603 whole entry, looked up): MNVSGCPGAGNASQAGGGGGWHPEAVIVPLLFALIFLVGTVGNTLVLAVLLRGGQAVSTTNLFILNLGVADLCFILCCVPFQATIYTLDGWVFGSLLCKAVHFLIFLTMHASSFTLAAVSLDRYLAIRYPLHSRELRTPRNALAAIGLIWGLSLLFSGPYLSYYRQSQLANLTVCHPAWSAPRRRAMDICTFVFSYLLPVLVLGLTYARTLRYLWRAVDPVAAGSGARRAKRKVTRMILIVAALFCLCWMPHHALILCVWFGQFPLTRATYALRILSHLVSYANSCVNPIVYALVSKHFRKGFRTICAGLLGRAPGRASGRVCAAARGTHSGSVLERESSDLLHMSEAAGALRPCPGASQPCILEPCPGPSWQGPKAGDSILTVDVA
RGS16-Gao – RGS16-Galphao interaction regulator (human); AID 1441; bead-based flow cytometry RGS16-Galphao binding, fluorescence; actives lie on both sides; 220,000 tested, 0.38% active; O15492+P09471; binding response (% of control), % at 10 µM;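 active = below 25% or above 175%, edge rows of some plates excepted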;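 also: Galphao activated by GDP with aluminum fluoride before binding; 100% = wells without compound and 0% = beads without RGS; some results beyond the cut were filed as inactive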
Target sequence (O15492 whole entry, looked up): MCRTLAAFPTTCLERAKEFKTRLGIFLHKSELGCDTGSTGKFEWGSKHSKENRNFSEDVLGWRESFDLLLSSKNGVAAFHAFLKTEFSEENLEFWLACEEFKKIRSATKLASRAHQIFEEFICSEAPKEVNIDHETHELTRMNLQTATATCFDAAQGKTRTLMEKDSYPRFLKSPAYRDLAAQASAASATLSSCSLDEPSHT
Target sequence (P09471 whole entry, looked up): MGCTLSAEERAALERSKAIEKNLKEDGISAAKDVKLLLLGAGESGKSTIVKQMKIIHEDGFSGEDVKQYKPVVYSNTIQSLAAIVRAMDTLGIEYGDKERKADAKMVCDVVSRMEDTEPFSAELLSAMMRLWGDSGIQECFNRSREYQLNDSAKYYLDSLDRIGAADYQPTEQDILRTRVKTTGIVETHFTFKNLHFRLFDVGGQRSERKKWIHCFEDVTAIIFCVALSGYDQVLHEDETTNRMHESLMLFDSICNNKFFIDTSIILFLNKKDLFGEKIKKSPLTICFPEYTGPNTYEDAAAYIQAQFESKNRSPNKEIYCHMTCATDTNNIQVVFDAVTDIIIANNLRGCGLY
Insulin prom inh cell count – also measured in Insulin prom inh; calls as there; normalized cell count, %; measured here: cell count, toxicity; reference of the scale not given here;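 cells exposed to compound for 48 h; stained nuclei by imaging scaled within each plate; lower means fewer cells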
HSV replic up primary fold – recorded beside HSV replic up, whose call it bears; fold increase; compound at 10 µM; measured here: primary screen fold increase 10 uM; tested in PC3 cells;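 GFP signal in the first replicate; 1 = infected wells without compound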
Active calls of the source: *; i = inactive; nt = not tested or not shown.

#	Molecule	Insulin prom inh	Insulin prom inh cell count	HSV replic up	HSV replic up primary fold
1	Nc1cc(-c2cccc(Br)c2)nn1Cc1ccccc1	20	97	i	1
2	O=C(Nc1ccc(N2CCN(C(=O)c3ccco3)CC2)cc1)c1ccco1	-65	49	i	0.93
3	Cc1nn(-c2ccccc2)c(C)c1/C=C/C(=O)OC(C)C(N)=O (centres undefined)	69*	181*	i	0.99
4	COc1ccc(/C=N/NC(=O)c2nn(-c3ccc(C)c(C)c3)c(=O)c3ccccc23)cc1	7	95	i	0.8
5	CCOC(=O)c1cc(CC)sc1NC(=O)c1ccc([N+](=O)[O-])c(N2CCOCC2)c1	-31	68	i	0.95
6	Cc1cc(C)c(NC(=O)/C=C\C(=O)O)c([N+](=O)[O-])c1	1	105	i	0.99
7	CN(C(=O)COC(=O)c1cn(-c2ccccc2)nc1-c1ccccc1)C1CCS(=O)(=O)C1 (centres undefined)	nt	nt	i	0.88
8	C/C(=N/Oc1nc(C)cc(C)n1)c1ccc(Br)cc1	-37	103	i	1.2
9	CC(=O)c1ccc(NC(=O)N2CCCC(C(=O)c3ccc4c(c3)OCO4)C2)cc1 (centres undefined)	nt	nt	i	0.89
10	COCCCN(CC(=O)Nc1ccc(N2CCOCC2)cc1)S(=O)(=O)c1ccccc1	nt	nt	i	1.1

#	PKD1 inh	GALR2 ag	RGS16-Gao
1	-9	-1.9	94
2	-8	nt	106
3	7	-2.1	107
4	-1	-0.3	102
5	-9	-1.5	84
6	-5	-1.4	101
7	2	nt	100
8	-8	-0.5	90
9	-3	nt	102
10	-2	nt	106

Carrying on:
#	Molecule	Insulin prom inh	Insulin prom inh cell count	HSV replic up	HSV replic up primary fold
11	COc1ccc(CC(=O)NC(C)c2nnc(SCCOc3ccc(OC)cc3)n2C)cc1 (centres undefined)	-34	41	i	0.97
12	O=C(c1cncc(Br)c1)N1CCCc2ccccc21	-41	116	i	0.98
13	CCCC(=O)Nc1nc(C)c(-c2csc(Nc3ccc(Cl)cc3)n2)s1	-19	89	i	0.69
14	COc1ccccc1N1CCN(C(=O)Cc2cccs2)CC1	nt	nt	i	0.93
15	CCN(CC)S(=O)(=O)c1cc(NS(=O)(=O)c2c(Cl)cccc2Cl)ccc1C	-46	96	i	0.84
16	CCC(C)N1CNc2c(c(=O)[nH]c(=S)n2-c2cccc(C)c2)C1 (centres undefined)	nt	nt	i	1
17	COc1ccccc1NC(=O)CN1CC(=O)Nc2ccccc21	-50	80	i	1
18	Cn1c(Cc2ccccc2)nnc1SCC(=O)Nc1ccc2c(c1)OCCO2	-20	121	i	1.3
19	Cc1cccc(C)c1NC(=O)CSc1nnc(Cn2nnc(-c3ccccc3)n2)n1-c1ccccc1	-29	105	i	0.83
20	CNC(=S)N/N=C(\C)c1cccc([N+](=O)[O-])c1	nt	nt	i	0.92

#	PKD1 inh	GALR2 ag	RGS16-Gao
11	-9	-1.0	104
12	-10	-2.8	102
13	-14	0.1	82
14	7	-2.6	99
15	1	-0.1	22
16	5	nt	100
17	-1	nt	114
18	-5	-4.4	100
19	1	-1.4	103
20	3	0.2	99

Compound profiles, from the list above. Screens in order: Insulin prom inh | Insulin prom inh cell count | HSV replic up | HSV replic up primary fold | PKD1 inh | GALR2 ag | RGS16-Gao
`CNC(=S)N/N=C(\C)c1cccc([N+](=O)[O-])c1` reads nt | nt | i | 0.92 | 3 | 0.2 | 99
`O=C(c1cncc(Br)c1)N1CCCc2ccccc21` reads -41 | 116 | i | 0.98 | -10 | -2.8 | 102

Additional results follow.
#	Molecule	Insulin prom inh	Insulin prom inh cell count	HSV replic up	HSV replic up primary fold
21	CCOC(CCc1c(C)nc(NC(C)=O)[nH]c1=O)OCC	nt	nt	i	1.1
22	O=C(N/N=C/c1ccc([N+](=O)[O-])o1)c1ccc(NS(=O)(=O)c2cccs2)cc1	nt	nt	i	1.1
23	CCn1cc([N+](=O)[O-])c(C(=O)Nc2c(C)nn(Cc3cccc(F)c3)c2C)n1	-8	112	i	0.96
24	ONC(=Nc1ccc(Cl)cc1)c1ccccc1Cl	-34	69	i	0.88
25	Cc1c(F)cccc1NS(=O)(=O)c1ccc2c(c1)c(=O)n(C)c(=O)n2C	nt	nt	i	0.82
26	O=C(O)c1c[nH]c2c(C(F)(F)F)cccc2c1=O	-4	73	i	0.85
27	CCN(CC)S(=O)(=O)c1ccc(NC(=O)c2cccc3c2C(=O)N(CCOC)C3)cc1	-59	91	i	1.1
28	CCCCOc1ccc(N(CC(=O)NC(C)(C)CC)C(=O)CCC(=O)Nc2ccccn2)cc1	nt	nt	i	0.67
29	CN(c1ccccc1)S(=O)(=O)c1cc(C(=O)Nc2nc3ccccc3[nH]2)ccc1Cl	nt	nt	i	0.8
30	COc1ccc(-n2c(C)cc(C(=O)Cn3nnc4ccccc4c3=O)c2C)cc1	16	59	i	0.77

#	PKD1 inh	GALR2 ag	RGS16-Gao
21	nt	nt	103
22	nt	nt	102
23	-9	-0.3	102
24	7	-0.6	100
25	-3	nt	102
26	-8	-2.4	105
27	6	0.7	102
28	4	nt	96
29	-3	-0.2	107
30	-1	-2.3	94

Structures shown so far containing two or more sulfur atoms:
#	Molecule	Insulin prom inh	Insulin prom inh cell count	HSV replic up	HSV replic up primary fold
13	CCCC(=O)Nc1nc(C)c(-c2csc(Nc3ccc(Cl)cc3)n2)s1	-19	89	i	0.69
15	CCN(CC)S(=O)(=O)c1cc(NS(=O)(=O)c2c(Cl)cccc2Cl)ccc1C	-46	96	i	0.84
22	O=C(N/N=C/c1ccc([N+](=O)[O-])o1)c1ccc(NS(=O)(=O)c2cccs2)cc1	nt	nt	i	1.1

#	PKD1 inh	GALR2 ag	RGS16-Gao
13	-14	0.1	82
15	1	-0.1	22
22	nt	nt	102

Additional entries follow:
#	Molecule	Insulin prom inh	Insulin prom inh cell count	HSV replic up	HSV replic up primary fold
31	CCOCCCNC(=S)N1CCN(Cc2ccco2)CC1	15	63	i	1
32	O=C(CCSCCc1ccccn1)Nc1cc(F)ccc1F	17	130	i	0.88
33	O=C(CC(C(=O)O)P(=O)(c1ccccc1)c1ccccc1)c1ccccc1 (centres undefined)	-35	53	i	1.1
34	Cc1c(C(=O)NCCn2ccc3ccccc32)cccc1[N+](=O)[O-]	-35	86	i	1
35	O=C1/C(=C/c2ccco2)SC(=S)N1CC1CCCO1 (centres undefined)	nt	nt	i	1.1
36	CC1=C(C)CC(C(=O)NNC(=O)c2cccc(Cl)c2)C(C(=O)O)C1 (centres undefined)	0	107	i	0.89
37	COc1ccc(N2CCN(c3ccc(Cl)nn3)CC2)cc1	nt	nt	i	0.95
38	CCOC(=O)CSc1nc2c(sc(=S)n2-c2ccc(OCC)cc2)c(=O)[nH]1	-57	106	i	0.67
39	COc1ccc2[nH]c(C)c(CCNC(=S)Nc3cccc(C)c3C)c2c1	-2	84	nt	nt
40	COc1ccccc1-c1ccc(Nc2ccc(C(=O)N3CCOCC3)cc2)nn1	48	164	i	0.94

#	PKD1 inh	GALR2 ag	RGS16-Gao
31	-5	nt	103
32	5	0.3	100
33	1	nt	100
34	-8	nt	107
35	nt	nt	88
36	6	8.2*	100
37	-5	nt	104
38	-1	nt	106
39	-3	-2.2	111
40	-1	-2.3	93

The list continues.
#	Molecule	Insulin prom inh	Insulin prom inh cell count	HSV replic up	HSV replic up primary fold
41	C=CCNC(=O)/C(C#N)=C/c1c(N2CC(C)OC(C)C2)nc2ccccn2c1=O (centres undefined)	36	145	i	0.96
42	Cc1ccc(NC(=O)CSc2nnc(-c3ccco3)o2)cc1	24	115	i	1.1
43	O=C(NC1CC1)C1CCN(C2CCN(C(=O)CSc3ccccc3)CC2)CC1	nt	nt	i	1.1
44	O=C(N/N=C/c1ccc(N2CCOCC2)o1)c1cccc(F)c1	70	118	i	0.84
45	Cc1ccccc1N1CC(C(=O)O)CC1=O (centres undefined)	3	186	i	0.91
46	Cc1c(Cl)c([N+](=O)[O-])nn1CCCC(=O)Nc1cccc(O)c1	-30	107	i	1
47	COc1ccc(CCNC(=O)CCCn2c(SCC(N)=O)nc3cc4c(cc3c2=O)OCO4)cc1OC	nt	nt	i	1
48	Cc1ccc(NC(=O)Nc2cc(Cl)ccc2C2COC(=O)C2=N)cc1 (centres undefined)	nt	nt	i	1.1
49	Cc1ccc(-c2ccc(CCC(=O)O)n2NC(=O)c2ccco2)cc1	-195	123	i	0.97
50	Cc1cc(C(=O)Cn2cncn2)c(C)n1CCc1ccc(F)cc1	nt	nt	i	1.1

#	PKD1 inh	GALR2 ag	RGS16-Gao
41	2	3.1	100
42	-9	nt	101
43	nt	nt	98
44	1	-0.8	90
45	-3	nt	101
46	-2	nt	91
47	1	nt	111
48	-2	nt	87
49	-5	0.9	95
50	-9	-1.9	101

Additional structures follow.
#	Molecule	Insulin prom inh	Insulin prom inh cell count	HSV replic up	HSV replic up primary fold
51	COc1ccc(CCNC(=O)CN2CCC(C(N)=O)CC2)cc1	9	77	i	0.87
52	COc1ccc(NC(=O)c2cc(-c3cccnc3)nc3ccc(C)cc23)cc1OC	21	138	i	0.68
53	CCC(Sc1nc2ccccc2s1)C(=O)Nc1cc(C)on1 (centres undefined)	-69	160	i	0.94
54	CCCCNC(=O)CCCCCn1c(=O)[nH]c2cc(OC)c(OC)cc2c1=O	nt	nt	i	0.85
55	CCOc1ccccc1CN1CCC(CO)(CCOc2ccccc2)CC1	nt	nt	i	0.92
56	Cc1ccc(C)c(NC(=O)Cn2nnc(-c3ccc(N4CCOCC4)cc3)n2)c1	0	80	i	0.83
57	CCOc1ccc(C(C)=O)cc1CSC(=N)N	nt	nt	i	1
58	CC(C)C(=O)Nc1ccc(NC(=O)c2cccc(F)c2)cn1	0	77	i	0.98
59	COCC(=O)Nc1cc(OC)c(Cl)cc1OC	-39	288	i	0.96
60	CC(=O)Oc1cccc(C(=O)Nc2c[nH]c(=O)[nH]c2=O)c1	nt	nt	i	0.92

#	PKD1 inh	GALR2 ag	RGS16-Gao
51	-2	-0.4	90
52	0	-2.9	111
53	-1	-1.9	104
54	-6	-3.2	67
55	0	nt	108
56	-2	nt	111
57	8	nt	103
58	4	1.6	95
59	-13	-3.2	102
60	-2	nt	102

(continued)
#	Molecule	Insulin prom inh	Insulin prom inh cell count	HSV replic up	HSV replic up primary fold
61	CCOCCc1c(O)nc(SCC(=O)NCc2ccco2)[nH]c1=O	nt	nt	i	0.97
62	O=S1(=O)CCC(NC(=S)Nc2ccc(Cl)cc2)C1 (centres undefined)	18	61	i	0.9
63	N#CCC1c2ccccc2CCN1C(=O)Nc1ccc(C(F)(F)F)cc1 (centres undefined)	7	84	i	0.83
64	O=C(CSc1nc2ccccc2[nH]1)NCCc1ccc(Cl)cc1	-4	27	i	0.99
65	CC(NC(=O)CSc1nc2sc3c(c2c(=O)n1-c1ccccc1)CCCC3)c1ccccc1 (centres undefined)	-25	98	i	0.87
66	O=C(CCN1CCN(S(=O)(=O)c2ccc(Br)cc2)CC1)Nc1ccccc1F	0	138	i	0.91
67	Cc1ccc(N2C(=N)/C(=C3/Nc4ccccc4S3)C(c3ccccc3)C2=O)cc1 (centres undefined)	nt	nt	i	1.2
68	CCOC(=O)N1CCC(N2C(=O)c3ccccc3C2=O)CC1	nt	nt	i	1
69	Cc1cnc(CN(C)C(=O)c2cc(COc3c(F)cccc3F)on2)[nH]1	nt	nt	i	0.96
70	Cc1ccc(C(=O)Nc2ccccc2NC(=O)c2ccc(C)o2)o1	-21	87	i	0.93
71	COc1cccc(CN2C(=O)CN(C3CCCCC3)C(=O)C2c2ccc(F)cc2)c1 (centres undefined)	nt	nt	i	0.9

#	PKD1 inh	GALR2 ag	RGS16-Gao
61	18	-2.0	103
62	8	0.7	172
63	6	-1.8	103
64	-21	-0.9	100
65	-7	0.0	82
66	3	nt	96
67	4	-1.3	98
68	-4	-0.9	108
69	-13	nt	123
70	-3	-1.5	-12
71	8	-3.2	102

No enrichment for hits; any-hit rate near 1.3%.
